# TRPML1 inh = blocks the human TRPML1 channel | TRPML1-inducible cells, Ca2+ dye fluorescence, FDSS; hits give low values; inhibition of EC80 agonist-evoked calcium signal | activity change, negative = inhibition, % (no concentration beside the values) | AID 624415 | actives 0.02% (n = 390,000) | Q9GZU1; in the data active means activity change below about -50%; inconclusive means about -30% to -50%; inactive means above about -30%;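 note: stimulus is agonist 54-4 at its EC80 concentration; % is set by controls: 0 for no effect and ±100 for the full control effect; compound concentration not given in the record; the text of the record puts the active cut at -80%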
# Target sequence (Q9GZU1 whole entry, looked up): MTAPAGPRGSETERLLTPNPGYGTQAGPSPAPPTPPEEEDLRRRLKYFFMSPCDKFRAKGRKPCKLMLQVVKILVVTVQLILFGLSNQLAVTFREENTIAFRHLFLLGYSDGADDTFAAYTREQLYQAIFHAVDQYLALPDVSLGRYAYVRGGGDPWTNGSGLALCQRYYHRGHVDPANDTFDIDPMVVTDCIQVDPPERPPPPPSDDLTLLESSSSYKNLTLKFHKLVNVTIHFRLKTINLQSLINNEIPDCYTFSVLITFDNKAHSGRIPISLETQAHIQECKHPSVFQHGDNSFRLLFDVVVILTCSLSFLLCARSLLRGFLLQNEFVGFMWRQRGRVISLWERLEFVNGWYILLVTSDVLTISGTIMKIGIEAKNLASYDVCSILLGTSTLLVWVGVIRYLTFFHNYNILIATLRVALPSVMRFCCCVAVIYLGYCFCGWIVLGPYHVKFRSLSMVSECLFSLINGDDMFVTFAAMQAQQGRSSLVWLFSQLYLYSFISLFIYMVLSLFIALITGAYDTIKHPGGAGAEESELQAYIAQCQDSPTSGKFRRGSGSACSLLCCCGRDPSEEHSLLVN
#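 TRPML1-DL cells, Tet-induced overnight (~16 h, 37 °C) at 1,500 cells/well, were loaded with Ca8 no-wash dye plus quencher for 45-90 min at room temperature. Compounds were pinned during FDSS kinetic reading; agonist 54-4 at EC80 (4 uM final) then added.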
# D2 potentiator = potentiates the human D2 dopamine receptor allosterically; P14416; DiscoveRx D2 beta-arrestin cells, luminescence, 90 min; 100% = 57 uM dopamine signal; potentiation, % (no concentration beside the values); actives 0.23% (n = 360,000); AID 624464; active = potentiation of 50% or more; inconclusive = 30% to 50%; inactive = 30% or less;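 note: compound concentration not given in the record; tested on top of an EC20 dose of dopamine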
# Target sequence (P14416 whole entry, looked up): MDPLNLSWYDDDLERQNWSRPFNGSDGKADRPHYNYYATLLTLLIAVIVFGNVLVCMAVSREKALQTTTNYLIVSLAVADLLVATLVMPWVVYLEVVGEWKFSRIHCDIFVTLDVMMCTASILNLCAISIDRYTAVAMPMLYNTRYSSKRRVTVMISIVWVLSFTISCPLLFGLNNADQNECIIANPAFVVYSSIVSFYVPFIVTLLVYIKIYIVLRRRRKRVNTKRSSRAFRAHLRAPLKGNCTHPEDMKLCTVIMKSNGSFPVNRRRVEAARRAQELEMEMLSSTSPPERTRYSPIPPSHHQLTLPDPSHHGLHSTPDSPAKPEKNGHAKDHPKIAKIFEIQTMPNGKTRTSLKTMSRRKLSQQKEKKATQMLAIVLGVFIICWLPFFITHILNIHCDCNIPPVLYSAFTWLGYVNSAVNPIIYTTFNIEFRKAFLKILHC
#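 D2 cells co-treated with compound plus 50 nM dopamine (EC20) for 90 min at 37 deg C to detect potentiation. Beta-arrestin recruitment was read as enzyme-fragment luminescence after 1 h at ambient temperature. Full response was set by 57 uM dopamine.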
# TRPV1 PAM = human TRPV1 potentiation; potentiation, % at 8.33 µM; actives 0.02% (n = 320,000); TRPV1-expressing cells, Fluo-8 calcium influx, capsaicin EC20 potentiation; host cell line not named in the record; control for the full effect not named in the record; Q8NER1; active means potentiation above 80%; inconclusive means 30% to 80%; inactive means below 30%; note: 0% is about no effect
#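 TRPV1-expressing cells were cultured overnight at 35.5C and loaded with Fluo-8 calcium dye for 40 to 90 min at room temperature. After a 10 s baseline, compound was added and calcium influx was read kinetically for 3 min (ex 480/em 520 nm).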
# CtBP-E1A inh = CtBP/E1A binding inhibition; activity change, % (test concentration not listed); actives 0.49% (n = 340,000); AlphaScreen GST-E1A/His-CtBP binding, 1536-well; hits give low values; control for the full effect not named in the record; in the data active means activity change below about -65%; inconclusive means about -30% to -65%; inactive means above about -30%; note: % is set by controls: 0 for no effect and ±100 for the full control effect; compound concentration not given in the record
#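 Homogeneous bead-based format: GST-tagged E1A captured on glutathione donor beads, His-tagged CtBP on nickel acceptor beads; compounds precede bead addition by 2 h at 37 °C.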
# TRPML1 ag = agonists of human TRPML1 channel. Q9GZU1. TRPML1-expressing cells, Ca2+ dye fluorescence, FDSS; host cell line not named in the record; reference of the full effect not given here. activation, % (test concentration not listed). actives 0.12% (n = 410,000); in the data active = activation above about 50%; inconclusive = about 30% to 50%; inactive = below about 30%; note: 0% is about no effect; the text of the record puts the active cut at 80%
#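 Kinetic FDSS Ca2+ read in Tet-induced TRPML1-DL cells (ABD Ca8 dye plus quencher, 45-90 min RT loading): baseline, then compound, then 110 s agonist window; EC80 agonist 54-4 at 4uM final added afterwards for a 110 s antagonist window.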
# Six1-Eya2 blk = inhibitors of human Six1/Eya2 interaction; Q15475+O00167; activity change, % (no concentration beside the values); actives 0.56% (n = 360,000); AlphaScreen GST-Six1/His-Eya2 binding, biochemical; hits give low values; control for the full effect not named in the record; in the data active = activity change below about -65%; inconclusive = about -30% to -65%; inactive = above about -30%; note: % is set by controls: 0 for no effect and ±100 for the full control effect; compound concentration not given in the record
#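 GST-Six1 + His-Eya2 (5X stock: 250/500 nM); Tris pH 8.0, 300 mM NaCl, 0.05% BSA, 0.02% Tween 20; GSH donor/Ni acceptor beads; 1 h 37 °C dark; AlphaScreen readout.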
# Active calls of the source: *; ? = inconclusive; / = not tested or not shown; & = joins results of further samples.
# Each structure is followed by: Six1-Eya2 blk	TRPV1 PAM	CtBP-E1A inh	TRPML1 inh	TRPML1 ag	D2 potentiator
CCOC(=O)c1cc2c(ccc3nc(C)c(C)c32)[nH]c1C
    -2.8	8.2	-8.8	10.9	6.4	-11.9
CC(C)(C)NS(=O)(=O)c1ccc(NC(=O)Cc2ccccc2[N+](=O)[O-])cc1
    -29.6	-1.4	-20.8	20.8	-0.1	-1.8
NNC(=O)c1cc(C23CC4CC(CC(C4)C2)C3)[nH]n1
    3.2	-9.2	0.6	11.7	-0.1	0.8
O=C(Nc1ccc(S(=O)(=O)C(F)F)cc1)c1ccc2c(=O)n3c(nc2c1)CCC3
    0.0	3.2	21.0	-13.3	-0.2	-24.9
Clc1cccc(Cl)c1/C=N\Nc1nccs1
    -7.9	20.3	9.4	4.8	-0.3	-19.0
CCC1=C(OC(=O)N(CC)CC)N2C(=O)OC(=NCC(=O)OC)[C@]2(Cc2ccccc2)[C@H]2C1=CC[C@H]1C(=O)NC(=O)[C@H]12
    2.6	-21.9	-4.0	19.9	1.3	-6.4
NC(=S)N/N=C\c1ccc(-c2cccc(Cl)c2Cl)o1
    -14.9	-11.4	-11.6	20.2	8.8	-15.8
Cc1cc2ncn(-c3ncnc4sc5c(c34)CCCC5)c2cc1C
    2.7	-6.9	-0.7	-17.9	-0.6	2.1
CC#CCN1c2ccccc2[C@]23C[C@@H](C(=O)OC)N(C(=O)NC4CCCCC4)C2=NC(C(=O)OC)=C(C(=O)OC)[C@H]13
    -6.1	/	-5.8	-9.0	0.3	-6.8
CC(C)OCCCNc1nc(Cl)nc2c1cnn2C
    -13.3	/	3.1	11.7	0.7	-23.6
Cc1nn(C)cc1C(C(=O)NC1CCCCC1)N(C(=O)Cc1cccs1)c1ccc(C(C)C)cc1 (configuration not stated)
    -4.8	/	5.3	11.3	2.7	-16.9
CC(=O)Nc1nc2ccccc2n1Cc1ccccc1
    1.2	-0.6	18.1	-8.0	-0.4	-3.9
O=C(N/N=C/c1ccc(-c2cccc([N+](=O)[O-])c2)o1)c1ccc([N+](=O)[O-])cc1
    -17.6	-8.5	7.8	26.9	1.9	-26.1
O=C(Cn1cccc1C(=O)c1ccccc1)NCc1ccccc1
    0.3	-13.9	0.1	6.7	-0.4	-12.3
Cc1c2c(=O)n(-c3nc4ccccc4s3)nc-2cc(O)n1Cc1ccccc1
    -3.5	-14.4	/	87.1	-0.7	-15.5
COC(=O)c1cc(NC(=O)c2cc(-c3ccc(Cl)cc3)oc2C(F)(F)F)ccc1N1CCOCC1
    2.1	-12.2	-3.4	22.0	-0.6	-2.7
Cc1ccc(S(=O)(=O)N2CCN(CC(=O)N/N=C\c3cccnc3)CC2)cc1
    14.1	-9.5	30.6	3.5	-0.4	2.7
OC(c1ccc(F)c(F)c1)c1ncc(-c2cccc(C(F)(F)F)c2)[nH]1 (configuration not stated)
    -12.4	/	-10.0	/	-0.6	-6.4
O=C(O)CC(CNS(=O)(=O)c1cccc2nsnc12)c1ccccc1 (configuration not stated)
    7.9	?	-14.5	-1.8	-0.6	-0.8
c1cnc2c(C3NCCc4c3[nH]c3ccccc43)cccc2c1 (configuration not stated)
    -10.0	4.7	-29.0	/	/	-94.9
CC(=O)Nc1ccc(N2C(C(C)=O)=NN(c3ccccc3)C2c2cccs2)cc1 (configuration not stated)
    -2.3	-7.6	-0.3	0.1	1.2	-6.8
O=C(Nc1ccc(F)c(F)c1)C1CCCN(S(=O)(=O)c2cccc3nonc23)C1 (configuration not stated)
    1.5	0.0	-3.3	-15.2&-7.1	2.1&-0.7	-4.5
CCCn1c(=O)c(C(=O)Nc2cc(C)ccn2)c(O)c2ccccc21
    -1.1	9.1	2.9	-14.4	0.9	-1.8
CC1CCN(CCCOc2ccc(OCc3ccccc3)cc2)CC1
    -8.4	-2.0	-14.5	28.2	2.1	-36.5
CCn1nnc(-c2ccccc2NS(=O)(=O)c2ccc(C(=O)OC)cc2)n1
    7.9	20.8	8.6	11.3	0.9	-4.9
COc1ccc(Br)cc1CN1CCSCC1
    9.4	3.0	24.2	-4.7	-1.1	-27.8
O=C(NCCc1ccc(F)cc1)c1ccc([N+](=O)[O-])cc1
    -3.2	-7.2	3.3	-19.4	-1.2	-1.8
Cc1nn(C(C)C)c(C)c1CN1CCCC(CCC(=O)NCc2ccccc2F)C1 (configuration not stated)
    -3.3	-2.3	0.2	-9.0	-0.1	-4.8
CCC(C(=O)Nc1ncn[nH]1)(C(F)(F)F)C(F)(F)F
    12.3	-3.8	5.6	9.6	-0.1	-3.5
O=C(O)C1CCCCC1C(=O)NCCc1ccc(Cl)cc1 (configuration not stated)
    -6.7	8.2	4.0	-12.8	0.0	-26.2

# Sorted by SMILES length (largest number first): some entries from above.
# Each structure is followed by: Six1-Eya2 blk	TRPV1 PAM	CtBP-E1A inh	TRPML1 inh	TRPML1 ag	D2 potentiator
COC(=O)c1cc(NC(=O)c2cc(-c3ccc(Cl)cc3)oc2C(F)(F)F)ccc1N1CCOCC1
    2.1	-12.2	-3.4	22.0	-0.6	-2.7
CCn1nnc(-c2ccccc2NS(=O)(=O)c2ccc(C(=O)OC)cc2)n1
    7.9	20.8	8.6	11.3	0.9	-4.9
O=C(NCCc1ccc(F)cc1)c1ccc([N+](=O)[O-])cc1
    -3.2	-7.2	3.3	-19.4	-1.2	-1.8
NC(=S)N/N=C\c1ccc(-c2cccc(Cl)c2Cl)o1
    -14.9	-11.4	-11.6	20.2	8.8	-15.8
CC1CCN(CCCOc2ccc(OCc3ccccc3)cc2)CC1
    -8.4	-2.0	-14.5	28.2	2.1	-36.5
Clc1cccc(Cl)c1/C=N\Nc1nccs1
    -7.9	20.3	9.4	4.8	-0.3	-19.0
COc1ccc(Br)cc1CN1CCSCC1
    9.4	3.0	24.2	-4.7	-1.1	-27.8

# The list goes on:
# Each structure is followed by: Six1-Eya2 blk	TRPV1 PAM	CtBP-E1A inh	TRPML1 inh	TRPML1 ag	D2 potentiator
O=C(NCc1ccco1)c1cccn2c(=O)c3sccc3nc12
    0.2	/	4.6	-6.4	-0.1	-8.6
O=C(O)c1cccc([N+](=O)[O-])c1C(=O)Nc1cccc2ccccc12
    -16.9	-4.5	5.7	10.1	-1.0	-4.9
O=c1[nH]c2ccccc2n2c(C(F)(F)F)nnc12
    -27.7	1.3	-16.6	-22.7	1.2	-4.5
O=C1C=C(c2ccccc2)CC(c2cccs2)C1n1cnc([N+](=O)[O-])c1 (configuration not stated)
    -5.2	4.3	-2.3	-3.0	2.1	21.5
CCOC(=O)c1ccc(NC(=O)CN(C)S(=O)(=O)c2ccc(OC)cc2)cc1
    3.5	-5.7	1.1	-0.4	2.7	3.5
CCOC(=O)C1=C(C(=O)OCC)N(CC2CCCCC2)CCC1=O
    2.3	/	6.8	2.3	-1.0	-5.7
Fc1ccc(-c2nc3c(-c4ccc(F)cc4)cnn3cc2CCN2CCOCC2)cc1
    -9.1	2.9	-7.5	-4.6	0.1	-7.0
COCC(=O)Nc1ccc(S(=O)(=O)Nc2nccs2)cc1
    3.4	-18.4	-2.3	15.1	0.6	-7.4
CC(=O)Nc1ccc(C=CC(=O)c2ccc([N+](=O)[O-])cc2)cc1
    -1.2	/	3.3	10.7	0.5	7.4
CC(=O)NC(Cc1ccccc1)C(=O)OCC(=O)c1ccc(Br)cc1 (configuration not stated)
    20.9	5.5	1.0	6.3	0.0	-29.4
O=C(COC(=O)c1ccc([N+](=O)[O-])o1)NC1CCCc2ccccc21 (configuration not stated)
    5.5	/	5.3	8.9	0.4	17.3
O=C(NC(=S)Nc1ccccc1N1CCCCC1)c1ccc(F)cc1Cl
    -16.2	2.4	5.7	37.9	1.2	-18.5
CCn1c2ccccc2c2cc(NS(=O)(=O)c3ccccc3C)ccc21
    -13.5	5.7	-5.0	33.6	0.0	-18.1
CN(C)S(=O)(=O)c1cccc(NC(=O)CN2C(=O)NC(CCc3ccccc3)C2=O)c1 (configuration not stated)
    2.8	3.6	/	-4.3	0.8	-3.0
COC(=O)C(C(C)C)N1CCc2c(C)nc3c(C#N)cnn3c21 (configuration not stated)
    -0.8	?	-0.7	2.6	-0.4	-5.1
O=C1Cn2c(nc3ccccc32)N1c1ccccc1F
    3.3	3.6	7.6	-5.8	-0.1	5.0
COc1ccc(NS(=O)(=O)c2ccc(C(=O)OC(C)C(=O)N3CCOCC3)cc2)cc1 (configuration not stated)
    -3.0	3.2	2.9	-6.0	-0.3	22.5
CCOC(=O)N1CCN(C(=O)c2ccc3nc(-c4ccccc4)c(-c4ccccc4)nc3c2)CC1
    -5.6	-2.4	-2.8	-1.1	2.1	-0.6
N=c1c2c3c(sc2ncn1CCCN1CCOCC1)CCCCC3
    3.2	-0.2	8.6	-10.2	-0.5	-2.9
CC(C)CC(c1nnnn1C1CCCC1)N1CCN(C(=O)c2ccco2)CC1 (configuration not stated)
    11.7	5.9	-4.1	0.0	-0.1	-5.5
COC(=O)CCCCC1SCC2NC(=O)NC21O (configuration not stated)
    8.3	-1.8	-6.6	-1.5	-0.6	-3.2
ClC1(Cl)CC1Cn1c(C2CC2)nc2ccccc21 (configuration not stated)
    2.0	-5.4	7.1	-11.1	0.7	-18.2
C[C@H](NC(=O)c1nc[nH]c1C(=O)NCc1ccc(CNC(=O)OC(C)(C)C)cc1)C(=O)OC(C)(C)C
    8.3	-12.2	-5.0	-20.6	2.1	-6.8
O=C(N/N=C/c1cccc([N+](=O)[O-])c1)c1ccc(COc2ccccc2-c2ccccc2)cc1
    -16.9	20.1	-16.5	7.4	-0.1	-8.1
CC(C)c1ccc(NC(=O)CCCC(=O)NCCc2ccccc2)cc1
    6.2	-8.1	/	-6.6	0.7	-29.9
O=C1OCc2cc(NC(=O)C3CCCO3)ccc21 (configuration not stated)
    4.6	-9.4	0.9	-7.1	-0.3	4.8
COc1ccc2c3c(c(=O)oc2c1OCC(N)=O)CCCC3
    -0.1	-1.0	1.1	4.1	1.7	12.0
O=C(OCC(=O)N1CCCc2ccccc21)c1cccc(S(=O)(=O)N2CCc3ccccc32)c1
    1.4	-2.2	6.2	12.1	-0.6	-13.9
O=C(COC(=O)c1ccc2[nH]c3c(c2c1)CCCC3)Nc1ccc(Cl)cc1Cl
    3.7	11.1	0.8	-29.2	1.3	-3.2
O=C(CCS(=O)(=O)c1ccc(Br)cc1)Nc1ccc(Cl)cc1F
    1.5	-10.6	0.6	24.1	2.6	-20.1
Cc1cccc(NC(=O)c2ccc(N3CCCCC3)c([N+](=O)[O-])c2)n1
    ?	-3.5	?	8.5	-0.4	-4.9
O=S(=O)(c1cccc(F)c1)N1CCN(C(=S)NCC2CCCO2)CC1 (configuration not stated)
    8.4	-2.7	3.9	21.4	-0.2	-13.6
COc1cc(NC(=O)CSc2nc3c(C)ccc(C)c3cc2C)c(C(=O)O)cc1OC
    2.3	29.1	-11.7	-9.2	-0.2	4.6
CN1CCCCC1=NCCCn1cnc2c1c(=O)n(C)c(=O)n2C
    1.2	-24.5	-3.1	-3.8	0.3	-8.8

# From PubChem
